BJeLR lethal = kills HRASV12-expressing BJeLR cells; BJeLR (HRASV12) viability, CellTiter-Glo ATP luminescence, 48 h; reference of the scale not given here; inhibition, % (concentration not given with the values); actives 0.17% (n = 300,000); AID 1554;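 active = replicate mean above 50%; inconclusive = above 50% but judged a plate artefact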;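 also: 50 nL library stock added to about 25 µL; numbers are from one replicate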
Mtb hypoxia inh = Mtb hypoxia fluorescent reporter inhibition; M. tuberculosis hypoxia-regulated fluorescent reporter, fluorescence; fluorescence inhibition, % (no concentration beside the values); actives 0.1% (n = 300,000);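 active = 35 to 45% if threefold the growth effect, above 45% if 1.5-fold the growth effect; inactive = the rest, general growth blockers included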;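 also: wells of about 50 µL received 100 nL stock; 0% = vehicle wells and 100% = reference inhibitor wells; whole bacteria with a GFP reporter of the hypoxia response; strong numbers were not always called active; many hits fall short of the cut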
PrP 5UTR inh = inhibition of PrP 5' UTR reporter expression. cell-based PrP 5' UTR mRNA reporter, plate reader. inhibition, % (concentration not given with the values). actives 0.35% (n = 340,000);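 active = every replicate at 50% or more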;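 also: 0 = median of the neutral control wells; tested in H4 reporter cells; numbers are from one replicate; inactives centre near -14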
Sa RN4220 lethal = S. aureus RN4220 growth inhibition. AID 1259311. inhibition, % (no concentration beside the values). OD600, 16 h. actives 0.33% (n = 330,000);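 active = z-score of -3 or lower and OD600 up to 0.18 on both plates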;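 also: plate controls were untreated cells for no effect and reference antibiotic for full effect; stock transfer was 100 nL into about 80 µL; one replicate is shown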
Bead autofluor = flagged as autofluorescent in microsphere protease counterscreen | fluorescence intensity (test concentration not listed) | compound autofluorescence counterscreen, microsphere flow cytometry; hits give high values | actives 3.1% (n = 360,000) | AID 624483;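 active = at least 3 SD above the mean of all compounds, about 16000 in these data; inconclusive = too few beads counted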;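 also: 100 nL of 1 mM stock went into each well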
Sa ugtP lethal = compounds lethal to S. aureus RN4220 ugtP deletion mutant. OD600 growth, 16 h; some inactives read as strong as hits. growth inhibition, % (concentration not given with the values). actives 0.54% (n = 330,000);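 active = z-score under -3 and OD600 up to 0.15 on both plates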;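 also: plate controls were untreated wells for no effect and antibiotic for full effect; wells of about 80 µL received 100 nL stock; the first replicate is given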
Mtb hypoxia inh growth = recorded beside Mtb hypoxia inh, whose call it bears; growth inhibition, %; measured here: M. tuberculosis growth (absorbance);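 0% = vehicle and 100% = reference antibiotic; read after six days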
The depositor's hits bear a star; ? = inconclusive; · = no result given. The order is random (roughly 4% active in at least one column).

SMILES | BJeLR lethal | Mtb hypoxia inh | Mtb hypoxia inh growth | PrP 5UTR inh | Sa RN4220 lethal | Bead autofluor | Sa ugtP lethal
C/C=C\C(=O)Nc1cccc(C2=NOC3(C2)C[C@@H](C(N)=O)N(C(=O)COc2ccc(Cl)cc2)C3)c1 (stereo partly specified) | 1.6 | · | · | -9.2 | · | 4094 | ·
O=C(c1cc2ccccc2oc1=O)N1CCCC1 | -7.0 | 14.5 | 8.9 | -16.4 | 6.2 | 4349 | -3.0
CSc1ccc(CN2CCN(C(=O)CC(C)C)CC2)cc1 | -5.9 | 14.2 | 1.0 | -18.9 | 0.1 | · | 9.8
COc1cccc2c1OCC(C(=O)Nc1nccs1)=C2 | 7.0 | 11.6 | -4.3 | -41.4 | 2.8 | 4421 | -5.4
CCCCCOC(=O)CCN1C(=O)/C(=C2\SC(=S)N(CCC(=O)OCCCCC)C2=O)SC1=S | -7.2 | 19.3 | 14.9 | -12.1 | 0.5 | 3092 | 1.9
CC(=O)Oc1ccc(OC(C)=O)c2c1CC(C)=C(C)C2 | -4.7 | -7.0 | 3.6 | -9.5 | 2.7 | 3277 | 2.5
COc1cc(C=NNC(=O)OC(C)(C)C)ccc1OC(=O)c1ccco1 | · | 5.0 | -0.8 | · | 5.6 | · | 2.4
COc1ccc(-c2nc(NCCCN(C)C)c3ccccc3n2)cc1 | 2.0 | 9.0 | 5.5 | -29.1 | -0.1 | 3224 | -0.8
O=C(CSc1nnc2ccc(-c3ccc(F)cc3)nn12)N1CCOCC1 | 7.4 | -5.6 | -2.0 | 4.9 | 1.6 | · | 4.6
O=C(NCCCNC(=O)c1ccccc1)c1ccccc1 | 0.6 | 8.0 | 6.0 | · | 8.2 | ? | 7.0

Entries of single compounds as entered above:
Shown for O=C(NCCCNC(=O)c1ccccc1)c1ccccc1 → BJeLR lethal: 0.6; Mtb hypoxia inh: 8.0; Mtb hypoxia inh growth: 6.0; PrP 5UTR inh: ·; Sa RN4220 lethal: 8.2; Bead autofluor: ?; Sa ugtP lethal: 7.0
Shown for O=C(CSc1nnc2ccc(-c3ccc(F)cc3)nn12)N1CCOCC1 → BJeLR lethal: 7.4; Mtb hypoxia inh: -5.6; Mtb hypoxia inh growth: -2.0; PrP 5UTR inh: 4.9; Sa RN4220 lethal: 1.6; Bead autofluor: ·; Sa ugtP lethal: 4.6

The results go on.
SMILES | BJeLR lethal | Mtb hypoxia inh | Mtb hypoxia inh growth | PrP 5UTR inh | Sa RN4220 lethal | Bead autofluor | Sa ugtP lethal
Cc1ccccc1S(=O)(=O)Cc1ccc(C(=O)N2CCN(c3cccc(C)c3C)CC2)o1 | 35.9 | 4.4 | 10.1 | -12.0 | 10.7 | 3327 | -11.9
CCOC(=O)C(=O)Nc1ccc(F)cc1 | 13.4 | 2.7 | 16.4 | -6.9 | -6.1 | 2458 | -3.7
COc1ccc(C)cc1NC(=O)CN1C(=O)CSc2ccc(S(=O)(=O)N3CCCC3)cc21 | -2.8 | 2.9 | 0.6 | -7.7 | -3.1 | 5097 | 1.0
CCOC(=O)c1c(-c2ccccc2)nnn1-c1nc(OCC)nc(N2CCCCC2)n1 | 2.4 | · | · | -5.0 | -1.4 | 3476 | -3.2
O=C(COc1ccc(F)cc1)NCC1CCCO1 (stereo unspecified) | 6.3 | 6.6 | 6.2 | -4.8 | -2.1 | 24747* | -2.7
CCCNC(=O)CCn1nc(-c2ccc(C)cc2)c2ccccc2c1=O | -4.6 | -7.0 | -1.1 | -13.0 | 3.1 | 3718 | 2.6
Cc1ccc(NC(=O)CC2C(=O)NCCN2C(=S)Nc2ccccc2)c(C)c1 (stereo unspecified) | 3.3 | -2.4 | -8.4 | -5.8 | -2.3 | 2550 | -4.4
CN(CC(=O)Nc1ccc(N2CCOCC2)cc1)CC(=O)Nc1ccccc1C#N | -2.1 | 5.7 | 5.2 | -17.7 | 4.5 | 10502 | -0.2
COc1cc(/C(C)=N/N2CCN(c3ccccc3OC)CC2)ccc1O | -2.3 | · | · | -22.8 | · | 4329 | ·
CCOC(=O)c1sc(NC(=O)c2ccoc2C)c(C(N)=O)c1C | -3.0 | · | · | -0.7 | · | 5424 | ·

Structural class: the entries above containing two or more sulfur atoms
SMILES | BJeLR lethal | Mtb hypoxia inh | Mtb hypoxia inh growth | PrP 5UTR inh | Sa RN4220 lethal | Bead autofluor | Sa ugtP lethal
CCCCCOC(=O)CCN1C(=O)/C(=C2\SC(=S)N(CCC(=O)OCCCCC)C2=O)SC1=S | -7.2 | 19.3 | 14.9 | -12.1 | 0.5 | 3092 | 1.9
COc1ccc(C)cc1NC(=O)CN1C(=O)CSc2ccc(S(=O)(=O)N3CCCC3)cc21 | -2.8 | 2.9 | 0.6 | -7.7 | -3.1 | 5097 | 1.0

Following part.
SMILES | BJeLR lethal | Mtb hypoxia inh | Mtb hypoxia inh growth | PrP 5UTR inh | Sa RN4220 lethal | Bead autofluor | Sa ugtP lethal
Cc1ccc(C(=O)NNC(=O)c2ccccc2-n2cccc2)cc1 | 6.0 | · | · | -6.9 | · | 5002 | ·
Cc1ccc(NC(=O)c2cc(N3C(=O)C4CC=CCC4C3=O)ccc2N2CCOCC2)cc1Cl (stereo unspecified) | -1.1 | · | · | -18.9 | 7.0 | 2111 | 1.6
O=C(c1ccccc1)c1ccc(COC(=O)c2cnccn2)cc1 | 21.6 | 11.0 | 6.6 | -30.1 | 1.3 | 4393 | 8.9
COc1ccc2c(c1)[nH]c1c(=O)n(CCCN3CCOCC3)cnc12 | 1.9 | 0.3 | -5.1 | -12.4 | -13.2 | 2752 | -6.5
O=C(N[C@@H](Cc1c[nH]c2ccccc12)C(=O)O)c1ccc(Cl)cc1 | 6.0 | -9.5 | -12.3 | -19.3 | 4.1 | 4718 | 2.1
CCN(CC(=O)Nc1ccccc1OC)CC(=O)Nc1ccccc1C(F)(F)F | 5.0 | -1.2 | -0.2 | -12.2 | 10.4 | 4362 | 7.7
COC(=O)[C@@H](Cc1ccccc1)NC(=O)[C@H]1CCC(=O)N1C(=O)OCc1ccccc1 | 0.4 | · | · | -22.6 | 21.2 | 5280 | 6.3
O=C(CCNc1cc(Cl)cc(Cl)c1)c1ccco1 | 4.9 | · | · | -7.7 | 9.6 | 4941 | -13.3
COc1ccc(N2C(=O)C3CCCN3C2=O)cc1 (stereo unspecified) | -3.1 | 4.3 | 11.5 | -16.1 | 5.8 | 3842 | 4.6
COc1ccccc1/C=C/C=NN1CCN(Cc2ccc(Cl)cc2)CC1 | · | -2.5 | 5.0 | · | -3.6 | · | -1.9
Cc1cc2[nH]c(=O)c(=O)[nH]c2cc1S(=O)(=O)NC1CCCCC1C (stereo unspecified) | -2.6 | · | · | -10.5 | 3.7 | 4500 | 8.4
COc1ccc(-c2noc(-c3ccoc3C)n2)cc1 | 8.0 | 2.6 | -0.2 | -104.8 | 7.8 | 3325 | 7.9
CC1CC2(C)C(=CC1=O)CCC1C3CCC(C)(O)C3(C)CC3OC312 (stereo unspecified) | · | 12.2 | 9.4 | 3.7 | -1.2 | 3842 | 0.0
CCCCn1c(N)c(N(CCOC)C(=O)c2cccc(S(=O)(=O)N3CCCCCC3)c2)c(=O)[nH]c1=O | 18.4 | 7.3 | 6.4 | -14.7 | 5.1 | 5353 | 7.5
CCn1cc(C(=O)C(F)(F)F)c2ccccc21 | 16.4 | 7.3 | 5.3 | -14.3 | 2.7 | 22281* | 3.3
S=C(Nc1ccc(Nc2ccccc2)cc1)NN1CCOCC1 | -9.3 | 13.7 | 12.4 | -3.3 | 7.2 | · | 13.2
CC(=O)c1c(C(=O)O)[nH]c(C(=O)O)c1C | -0.8 | 11.9 | 0.0 | -16.2 | 4.4 | 2716 | 4.8
FC(F)(F)c1cc(-c2ccco2)nc(N2CCN(c3ccccc3)CC2)n1 | -1.5 | 14.7 | 3.9 | -1.0 | 4.1 | 25233* | -7.5
COc1ccccc1-n1cnc2cc(C(=O)NCCCN3CCOCC3)ccc21 | 0.3 | · | · | -13.2 | 5.0 | 5011 | 2.2
CCCN1CNC(=S)N(Cc2ccccc2)C1 | -2.2 | -5.8 | -4.9 | -4.6 | 8.5 | 9970 | 3.5
CCCCSCCCNC(=O)c1cn(C)c2ccc(S(=O)(=O)N3CCCC3)cc2c1=O | 2.7 | 2.3 | 2.4 | -43.7 | 3.8 | 5267 | 0.9
COCCCNC(=O)CNC(=S)N(Cc1ccccc1)Cc1cccnc1 | -6.5 | 18.0 | 7.6 | -20.6 | 3.3 | 3960 | -69.1
Cc1ccc2c(CC(=O)O)coc2c1 | -1.6 | 3.2 | -1.8 | -9.5 | -0.7 | 2388 | 7.6
CCC1(C)N(O)C(C)(C)C(c2ccc(OC)cc2)=[N+]1[O-] (stereo unspecified) | -10.7 | 0.3 | -3.9 | -15.3 | -5.4 | 5618 | -4.0
Cc1ccccc1-c1n[nH]c(=S)o1 | 9.3 | · | · | -12.2 | 8.7 | 4852 | -2.4
Brc1ccc(-c2ccc(/C=N/Nc3nc(N4CCOCC4)nc(N4CCOCC4)n3)o2)cc1 | 0.7 | · | · | -21.2 | · | 4290 | ·
Cc1ccc(NS(=O)(=O)c2ccc3c(c2)NC(=O)CO3)cc1Cl | -0.1 | 4.3 | 1.9 | -12.0 | 3.3 | 4989 | -11.5
Cc1ccc(N(C)S(=O)(=O)c2cc(-c3cnc(C4CC4)o3)ccc2C)cc1 | 2.8 | · | · | -1.2 | 4.2 | 4862 | 16.6
CCOC(=O)C[C@H]1c2ccc(C(F)(F)F)cc2S(=O)(=O)N1C(C)C | 13.4 | · | · | -23.6 | · | 4095 | ·
CCOc1ccc(NS(=O)(=O)CC23CCC(CC2=O)C3(C)C)cc1 (stereo unspecified) | 10.5 | 5.1 | 17.9 | -17.8 | 6.1 | 10588 | 2.1
N#Cc1cccc(NC(=O)CCN2C(=O)C3CCCCC3C2=O)c1 (stereo unspecified) | · | 6.8 | 8.4 | -13.2 | 2.5 | 3934 | 5.6
CN(CC(=O)Nc1ccccc1-c1ccccc1)C1CCCCC1 | -1.2 | · | · | -23.3 | 6.2 | 2798 | 3.1
COC(=O)c1sc(NC(=O)c2c(OC)cccc2OC)c(C#N)c1C | 12.7 | 8.1 | -0.5 | -8.4 | 8.4 | 5145 | -0.3
CCOC(=O)CC(=O)CSc1nnc2sc3ccccc3n12 | · | · | · | -0.3 | 0.2 | 4422 | 2.2
S=C(NCCN1CCOCC1)Nc1ccc(-c2nc3ccccc3[nH]2)cc1 | 13.5 | -5.3 | 10.7 | -44.1 | -2.4 | 4260 | -10.8
COc1ccc(Cl)cc1NC(=O)CN(C)C(=O)CCCc1c[nH]c2ccccc12 | -2.7 | 1.3 | 6.4 | -16.8 | 32.6 | 5164 | 98.4*
Cc1cc(NN=Cc2ccc(F)cc2)nc(-n2nc(C)cc2C)n1 | · | 5.3 | 5.0 | · | 9.9 | · | -15.2
COc1ccc(C(CNC(=O)COc2ccccc2)N2CCCCC2)cc1 (stereo unspecified) | · | -15.8 | 1.5 | -17.4 | 2.8 | 4146 | -5.0
Cc1cc(C)n2nc(CC#N)c(C#N)c2n1 | 1.7 | -5.1 | 3.2 | -27.0 | 1.0 | 2169 | -2.7
C=CCn1c(SCC(=O)Nc2cccc(S(N)(=O)=O)c2)nc2sc(C)c(C)c2c1=O | · | 4.0 | -2.6 | 1.9 | 1.7 | 4726 | 1.9
O=C(NN1CCOCC1)c1ccc(Br)cc1 | 4.7 | 14.5 | -5.0 | -10.3 | 2.4 | 3043 | 14.3
CCOc1ccc(C(C)=O)cc1Cn1c(=O)oc2ccccc21 | 16.8 | -5.2 | -1.1 | -24.2 | 3.1 | 4023 | 2.2
Cn1nccc1C(=O)N1CCN(c2ncccn2)CC1 | -25.5 | 0.0 | -2.4 | -21.2 | 3.8 | 2489 | 5.4
COc1cccc(CSc2nc3sc(C)c(C)c3c(=O)n2Cc2ccco2)c1 | 1.6 | 2.0 | 1.7 | -26.8 | 1.5 | 19855* | 19.0
O=C(Oc1cccc2ccccc12)c1cc(Cl)nc2ccccc12 | -1.1 | -1.1 | -2.8 | -5.2 | 5.4 | 2042 | 11.9
CCOC(=O)c1c(NC(=O)COC(=O)c2cc(OC)c(OC)cc2[N+](=O)[O-])sc(C)c1C | -2.4 | 7.7 | -0.8 | 13.5 | 11.1 | 2517 | 0.6
S=c1[nH]nc(/C=C/c2ccccc2)o1 | -8.8 | -0.8 | 8.1 | -22.0 | 30.2 | 4493 | 5.5
Cc1ccc(C)c(NC(=O)CCN2C(=O)c3ccccc3C2=O)c1 | -2.3 | 8.4 | 1.8 | -12.9 | 3.8 | 3601 | 9.4
